ID4 binder – binds human ID4 protein on microarray; P47928; small molecule microarray, Flag-ID4 binding, fluorescence F/B; calls only; actives 1.2% (n = 31,000); AID 624137;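 active = spot signal over background at p below 0.07 in all four prints; compounds were printed on slides so no solution concentration is given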;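 note: a binder raises fluorescence above local background on the spot; about 2 pmol printed per array spot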
Target sequence (P47928 whole entry, looked up): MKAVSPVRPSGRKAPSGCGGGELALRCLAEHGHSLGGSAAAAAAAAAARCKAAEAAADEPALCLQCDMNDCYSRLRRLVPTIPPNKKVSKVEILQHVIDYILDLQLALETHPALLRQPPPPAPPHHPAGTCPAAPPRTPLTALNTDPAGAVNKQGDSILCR
Myc binder – binders of human c-Myc | calls only | small molecule microarray, His-c-Myc binding, anti-His fluorescence | actives 1.5% (n = 17,000) | P01106;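 active = spot fluorescence over background with P-value below 7% in all four replicate spots, showing protein binding; compounds were printed on slides so no solution concentration is given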;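 note: score is binary with 100 for all four spots passing and 0 otherwise; about 2 pmol printed per array spot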
Target sequence (P01106 whole entry, looked up): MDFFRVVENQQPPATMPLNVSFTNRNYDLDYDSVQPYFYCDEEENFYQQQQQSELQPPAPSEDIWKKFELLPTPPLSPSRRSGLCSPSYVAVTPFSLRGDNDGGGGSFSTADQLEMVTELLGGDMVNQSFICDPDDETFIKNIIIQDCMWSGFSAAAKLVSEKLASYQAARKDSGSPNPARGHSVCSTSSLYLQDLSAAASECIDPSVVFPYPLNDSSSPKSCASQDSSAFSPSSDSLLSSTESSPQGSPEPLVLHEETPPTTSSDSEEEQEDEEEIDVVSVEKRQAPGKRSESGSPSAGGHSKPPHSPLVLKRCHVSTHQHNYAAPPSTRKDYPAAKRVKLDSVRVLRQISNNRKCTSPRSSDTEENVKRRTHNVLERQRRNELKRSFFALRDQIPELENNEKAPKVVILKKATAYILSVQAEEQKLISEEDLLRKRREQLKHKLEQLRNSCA
p53 mut binder – binds human mutant p53 on microarray; small molecule microarray binding, anti-GST fluorescence; calls only; actives 0.4% (n = 17,000); AID 624136;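 active = compounds whose four printed spots each glow above background more than chance allows, each with a p-value under 7%; compounds were printed on slides so no solution concentration is given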;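 note: about 2 pmol printed per array spot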
STAT3 binder – binds human STAT3 on microarray | P40763 | Small molecule microarray, His-STAT3 binding, anti-His fluorescence | calls only | actives 0.2% (n = 17,000);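 active = compounds whose four printed spots each show fluorescence over background unusually high for their array block, chance value under 7%; compounds were printed on slides so no solution concentration is given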;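 note: about 2 pmol printed per array spot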
Calls only; i = inactive; nt = not tested or not shown.

SMILES	ID4 binder	Myc binder	p53 mut binder	STAT3 binder
C[C@H](CO)N1C[C@H](C)[C@H](CN(C)Cc2ccc3c(c2)OCO3)OCc2cn(nn2)CCCC1=O	i	i	i	i
CC(=O)n1cc([C@H]2C=C(C(=O)N3CCN(C)CC3)O[C@@H](OCc3ccc(CO)cc3)C2)c2ccccc21	nt	i	i	i
COc1ccc(CN(C)C[C@@H]2Oc3ccc(NS(=O)(=O)c4ccc(OC)cc4)cc3CC(=O)N([C@H](C)CO)C[C@H]2C)cc1	i	i	i	i
Cc1nn2c3ccccc3n(C)c2c1C(=O)CN1CCOCC1	i	i	i	i
CC1CCCC(C)N1NC(=O)c1ccc(Cl)c(S(N)(=O)=O)c1 (stereo not drawn)	nt	i	i	i
COc1ccc(S(=O)(=O)N(C)C[C@@H]2Oc3ccc(NC(=O)NC(C)C)cc3CC(=O)N([C@H](C)CO)C[C@@H]2C)cc1	nt	i	i	i
C=C1CCC(C)C(C)(CCC2=CC(=O)OC2O)C/C=C\C=C/1C(=O)O (stereo not drawn)	nt	i	i	i
CCn1c(=O)n(C2=C(CO)CN(CC3CCCCCCC3)CC2)c2ccccc21	i	i	i	i
C[C@@H]1CN([C@H](C)CO)C(=O)c2cc(NC(=O)c3ccncc3)ccc2O[C@@H]1CN(C)C(=O)Nc1ccc(F)cc1	i	i	i	i
O=C(CCN1C(=O)c2ccccc2C1=O)Nc1ccc2c(c1)OCCO2	i	i	i	i
C[C@H]1CN([C@@H](C)CO)C(=O)c2cc(NC(=O)CCCN(C)C)ccc2O[C@@H]1CN(C)Cc1ccc2c(c1)OCO2	i	i	i	i
C=C(C(=O)O[C@H]1C[C@]2(C)C(C(C=O)CC[C@H]2O)[C@H]2OC(=O)C(=C)[C@H]12)C(O)CO (stereo partly drawn)	i	i	i	i
C[C@H]1CCCCO[C@H](CN(C)C(=O)c2ccccc2)[C@@H](C)CN([C@@H](C)CO)C(=O)c2cc(NC(=O)Nc3ccc(F)cc3)ccc2O1	i	i	i	i
NC(N)=NCc1cccc(I)c1	i	i	i	i
C[C@@H]1CCCCO[C@@H](CN(C)C(=O)CCCN(C)C)[C@H](C)CN([C@@H](C)CO)C(=O)c2cc(NC(=O)c3ccncc3)ccc2O1	i	i	i	i
COc1ccc(NC(=O)N(C)C[C@H]2Oc3c(NS(=O)(=O)c4cccs4)cccc3C(=O)N([C@@H](C)CO)C[C@@H]2C)cc1	i	i	i	i
CC(C)NC(=O)N(C)C[C@@H]1OCCCC[C@@H](C)Oc2ccc(NC(=O)CCC(F)(F)F)cc2C(=O)N([C@H](C)CO)C[C@@H]1C	i	i	i	i
C=C[C@@]1(C)C[C@@]2(OC[C@@]3(C)O[C@@H]23)Oc2c1c(=O)oc1cccc(C)c21	i	i	i	i
C[C@@H]1CN([C@H](C)CO)C(=O)c2cccc(NC(=O)c3nc4ccccc4s3)c2O[C@@H]1CN(C)CC1CC1	i	i	i	i
C[C@H]1CN([C@@H](C)CO)C(=O)Cc2cc(NS(=O)(=O)c3cn(C)cn3)ccc2O[C@H]1CN(C)Cc1ccccc1	i	i	i	i
CC1(C)C=Cc2c(cc3occ(-c4ccc5c(c4)OCO5)c(=O)c3c2O)O1	nt	i	i	i
COc1ccc(OC)c(C(=O)c2ccc(C(=O)NCc3nc(-c4ccccc4)cs3)cc2)c1	i	i	i	i
CC(C)NC(=O)N(C)C[C@H]1Oc2ccc(NC(=O)C3CC3)cc2CC(=O)N([C@H](C)CO)C[C@@H]1C	i	i	i	i
Cc1noc(C)c1NC(=O)Nc1ccc2c(c1)CC(=O)N([C@H](C)CO)C[C@@H](C)[C@H](CN(C)Cc1ccncc1)O2	i	i	i	i
COc1ccc(CN(C)C[C@H]2Oc3c(NC(=O)Nc4ccc(OC)cc4)cccc3C(=O)N([C@H](C)CO)C[C@H]2C)cc1	i	i	i	i
CCOc1ccc(N2C(=O)CSC2c2cccc([N+](=O)[O-])c2)cc1 (stereo not drawn)	i	i	i	i
C[C@@H]1CN([C@@H](C)CO)C(=O)Cc2cc(NS(=O)(=O)c3ccccc3)ccc2O[C@@H]1CN(C)C	i	i	i	i
CCC(C)C(O)C(C)(O)/C=C/C1=CC2=C(Cl)C(=O)C(C)(O)C(O)C2CO1 (stereo not drawn)	i	i	i	i
C[C@@H]1CN([C@@H](C)CO)C(=O)c2cc(NC(=O)c3ccncc3)ccc2O[C@H]1CN(C)S(=O)(=O)c1cccs1	i	i	i	i
CC(C)NC(=O)N(C)C[C@H]1Oc2ccc(N(C)C)cc2CC(=O)N([C@H](C)CO)C[C@@H]1C	i	i	i	i
COC(=O)c1c2oc(c1C(=O)OC)C(=O)N[C@@H](Cc1ccccc1)Cn1cc(nn1)CNC(=O)[C@H](Cc1ccccc1)NC(=O)N[C@@H](CO)CC2	i	i	i	i
COC(=O)C1=COC(OC2OC(CO)C(O)C(O)C2O)C2C1C=CC2(O)CO (stereo not drawn)	i	i	i	i
C[C@@H]1CCCCO[C@H](CN(C)C(=O)c2ccncc2)[C@H](C)CN([C@H](C)CO)C(=O)c2cc(N(C)C)ccc2O1	i	i	i	i
C/C(=C/CCC(CO)C1CCC2(C)C3CCC4C(C)(C)C(OC5OC(CO)C(O)C(O)C5O)CCC45CC35CCC12C)COC1OC(COC2OC(CO)C(O)C(O)C2O)C(O)C(O)C1O (stereo not drawn)	i	i	i	i
C[C@@H]1CCCCO[C@@H](CN(C)C(=O)CCCN(C)C)[C@@H](C)CN([C@H](C)CO)C(=O)c2cc(NS(=O)(=O)c3cccs3)ccc2O1	i	i	i	i
Cc1ccc(S(=O)(=O)Nc2cccc3c2O[C@@H](CN(C)Cc2ccc(Oc4ccccc4)cc2)[C@@H](C)CN([C@@H](C)CO)C3=O)cc1	nt	i	i	i
C[C@@H]1CN([C@H](C)CO)C(=O)CCCn2cc(nn2)CO[C@@H]1CN(C)S(=O)(=O)c1ccc(-n2cccn2)cc1	i	i	i	i
CC(C)NC(=O)Nc1cccc2c1O[C@@H](CN(C)CC1CC1)[C@H](C)CN([C@@H](C)CO)C2=O	i	i	i	i
CNC[C@H]1OCCCC[C@H](C)Oc2ccc(NC(=O)NC(C)C)cc2C(=O)N([C@H](C)CO)C[C@@H]1C	i	i	i	i
CCCCc1cn(C[C@H](Cc2ccccc2)NC(=O)N[C@H](CO)CCc2oc(C(C)=O)c(C(=O)OC)c2C(=O)OC)nn1	i	i	i	i
C[C@@H]1CN([C@H](C)CO)C(=O)c2cc(NC(=O)Nc3ccc4c(c3)OCO4)ccc2O[C@H]1CN(C)Cc1ccncc1	i	i	i	i
CCNc1nc(NC(C)(C)C)nc(N(C#N)CC(=O)OC)n1	i	i	i	i
C[C@@H]1CN([C@@H](C)CO)C(=O)c2cc(NC(=O)c3ccccc3)ccc2O[C@@H](C)CCCCO[C@@H]1CN(C)C	i	i	i	i
O=C1O[C@@H](c2ccccc2)[C@@H](c2ccccc2)N2[C@@H](c3ccc(OCCO)cc3)[C@]3(C(=O)Nc4ccccc43)[C@@H](C(=O)NC[C@H](O)c3ccccc3)[C@H]12	i	i	i	i
COc1ccc(CN(C)C[C@@H]2OCCCC[C@@H](C)Oc3ccc(NS(=O)(=O)c4ccc(Cl)cc4)cc3C(=O)N([C@@H](C)CO)C[C@@H]2C)cc1	nt	i	i	i
CNC[C@@H]1Oc2c(N)cccc2C(=O)N([C@H](C)CO)C[C@H]1C	i	i	i	i
Cc1cccc2c1N(C)C(=O)C2(O)CC(=O)c1ccco1 (stereo not drawn)	i	i	i	i
COC(=O)C1=CO[C@@H](O[C@@H]2O[C@H](CO)[C@@H](O)[C@H](O)[C@H]2O)[C@H]2[C@@H]1[C@H](O)C[C@]2(C)O	nt	i	i	i
C[C@H](CO)N1C[C@H](C)[C@H](CN(C)Cc2ccncc2)Oc2ccc(NC(=O)Nc3ccc(F)cc3)cc2CC1=O	i	i	i	i
C[C@@H]1CCCCO[C@@H](CN(C)Cc2ccc(C(F)(F)F)cc2)[C@H](C)CN([C@@H](C)CO)C(=O)c2cc(NC(=O)Cc3ccccc3)ccc2O1	nt	i	i	i
C=CCNc1nc(N)c(C(=O)Nc2cc(C)on2)s1	i	i	i	i
CCCCN1C(=O)C(O)(CC(=O)c2ccccn2)c2ccccc21 (stereo not drawn)	i	i	i	i
NC(=O)CSc1nnc(-c2ccncc2)n1-c1cccc(C(F)(F)F)c1	i	i	i	i
C[C@H](CO)N1C[C@H](C)[C@H](CN(C)Cc2ccncc2)Oc2ncccc2C1=O	i	i	i	i
C[C@@H]1CN([C@@H](C)CO)C(=O)c2cc(NC(=O)CCCN(C)C)ccc2O[C@H]1CN(C)C	i	i	i	i
CC(C)=CCc1cc(O)ccc1O[C@@H]1O[C@H](CO)[C@@H](O)[C@H](O)[C@H]1O	nt	i	i	i
CC(=O)Nc1ccc(NC(=O)Cn2cc([N+](=O)[O-])cn2)cc1	i	i	i	i
Cc1nc2c(O)cccc2c(=O)[nH]1	i	i	i	i
C[C@H](CO)N1C[C@H](C)[C@H](CN(C)C(=O)c2ccncc2)OCCCC[C@H](C)Oc2ccc(NC(=O)CCC(F)(F)F)cc2C1=O	i	i	i	i
Cc1noc(C)c1NC(=O)N(C)C[C@H]1OCCCC[C@@H](C)Oc2ccc(NS(=O)(=O)c3cccs3)cc2C(=O)N([C@H](C)CO)C[C@@H]1C	i	i	i	i

(continued)
SMILES	ID4 binder	Myc binder	p53 mut binder	STAT3 binder
CCOC(=O)c1c(NC(=O)CN2CCOCC2)sc(C(C)=O)c1C	i	i	i	i
COc1ccc(NC(=O)Cn2cc(C(=O)C(C)C)c3ccccc32)cc1	i	i	i	i
COc1ccccc1NC(=O)c1c(C)nc(Nc2nc3ccccc3o2)nc1C	i	i	i	i
O=C(Nc1ccccc1C(=O)O)c1cccc(S(=O)(=O)NCc2ccccc2)c1	i	i	i	i
O=c1[nH]c(CSc2nnc(-c3ccccc3)n2-c2ccccc2)nc2ccccc12	i	i	i	i
C[C@@H]1CN([C@@H](C)CO)C(=O)c2cc(NC(=O)Cc3ccccc3)ccc2O[C@@H](C)CCCCO[C@H]1CN(C)C	i	i	i	i
C[C@H](CO)N1C[C@H](C)[C@H](CN(C)S(=O)(=O)c2ccc(Cl)cc2)Oc2ccc(NS(=O)(=O)c3ccc(Cl)cc3)cc2C1=O	nt	i	i	i
C[C@@H]1CCCCO[C@H](CN(C)C(=O)c2ccccc2)[C@@H](C)CN([C@H](C)CO)C(=O)c2cc(NS(=O)(=O)c3cn(C)cn3)ccc2O1	i	i	i	i
COc1ccc(CN(C)C[C@H]2Oc3c(NC(=O)Nc4c(C)noc4C)cccc3C(=O)N([C@H](C)CO)C[C@@H]2C)cc1	i	i	i	i
O=C(CN1C(=O)c2ccccc2C1=O)Nc1ccc(S(=O)(=O)N2CCCCCC2)cc1	i	i	i	i
C[C@H](CO)N1C[C@H](C)[C@@H](CN(C)S(=O)(=O)c2ccc(Cl)cc2)Oc2c(NC(=O)Nc3ccc(C(F)(F)F)cc3)cccc2C1=O	i	i	i	i
C[C@H](CO)N1C[C@H](C)[C@@H](CN(C)S(=O)(=O)c2ccc(C#N)cc2)OCc2cn(nn2)CCCC1=O	i	i	i	i
Cc1cc(CNC(=O)c2cc(-c3ccccc3)nc3ccccc23)nn1C	i	i	i	i
C=C1CC[C@H]2[C@@](C)(CCC(O)[C@@]2(C)CO)[C@@H]1CCC1=CCOC1=O (stereo partly drawn)	i	i	i	i
c1coc(CNc2nc3ccccc3n2CCN2CCCCC2)c1	i	i	i	i
Cc1sc2ncnc(Nc3cccc(C(=O)O)c3)c2c1C	i	i	i	i
C=C(CC[C@@H](C)[C@H]1CCC2(C)C3=C(C[C@H](O)[C@]12C)[C@@]1(C)CC[C@@H](OC(=O)CC(=O)O)C(C)(C)C1CC3)[C@@H](C)C(=O)O (stereo partly drawn)	nt	i	i	i
CC(=O)c1cccc(NC(=O)CSc2nnc(-c3ccccc3Cl)n2-c2ccccc2)c1	i	i	i	i
Cc1cc2cc(O)cc(O)c2c(=O)o1	nt	i	i	i
CC(C)NC(=O)Nc1ccc2c(c1)C(=O)N([C@H](C)CO)C[C@H](C)[C@H](CN(C)C(=O)c1ccncc1)OCCCC[C@H](C)O2	i	i	i	i
CCOC(=O)c1ccc(COc2ccc(-c3cnc4ccccc4n3)cc2)o1	i	i	i	i

Entries shown so far that contain an aryl thioether with sulfur outside any ring (3):
SMILES	ID4 binder	Myc binder	p53 mut binder	STAT3 binder
NC(=O)CSc1nnc(-c2ccncc2)n1-c1cccc(C(F)(F)F)c1	i	i	i	i
O=c1[nH]c(CSc2nnc(-c3ccccc3)n2-c2ccccc2)nc2ccccc12	i	i	i	i
CC(=O)c1cccc(NC(=O)CSc2nnc(-c3ccccc3Cl)n2-c2ccccc2)c1	i	i	i	i

Compound activity as filed in PubChem.

The list is partial; rates above refer to the full screens.
